pPAFAH inh – pPAFAH enzyme inhibitors, primary screen, biochemical, fluorescence polarization, human; Platelet-activating factor acetylhydrolase (Homo sapiens), Q13093; actives 1.5% (n = 330,000); recombinant pPAFAH, FP-rhodamine probe fluorescence polarization; AID 463082, 2010; inhibition, % at 3.39 µM;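 active = inhibition above the mean inhibition across the screen plus 3 SD, cut at about 25% in these data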;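 note: inhibitors block binding of the rhodamine activity-based probe so polarization drops; 0% = enzyme with DMSO and 100% = wells lacking pPAFAH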
Target sequence (Q13093 whole entry, looked up): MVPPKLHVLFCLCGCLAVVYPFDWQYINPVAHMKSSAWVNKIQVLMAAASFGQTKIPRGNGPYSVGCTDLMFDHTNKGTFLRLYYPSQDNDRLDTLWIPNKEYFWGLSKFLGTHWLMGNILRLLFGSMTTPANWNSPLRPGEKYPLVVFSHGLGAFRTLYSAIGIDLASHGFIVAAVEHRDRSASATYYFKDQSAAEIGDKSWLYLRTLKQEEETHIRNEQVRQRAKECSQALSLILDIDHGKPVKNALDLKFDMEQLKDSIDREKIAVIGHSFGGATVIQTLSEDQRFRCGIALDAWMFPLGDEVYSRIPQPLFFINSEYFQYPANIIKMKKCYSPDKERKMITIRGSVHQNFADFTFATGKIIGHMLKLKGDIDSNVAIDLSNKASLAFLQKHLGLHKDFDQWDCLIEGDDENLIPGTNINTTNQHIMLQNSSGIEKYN
GLD-1 TGE inh – GLD-1/TGE RNA complex disruptors, primary screen, biochemical, fluorescence polarization | purified GLD-1 + fluorescein TGE RNA | inhibition, % at 5.96 µM | actives 0.44% (n = 320,000) | Female germline-specific tumor suppressor gld-1 (Caenorhabditis elegans), Q17339;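 active = percent inhibition above a per-plate cutoff, the plate mean of test compounds plus 3 SD, cut at about 30% in these data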;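 note: 0% = DMSO wells with GLD-1 and probe and 100% = wells lacking GLD-1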
Target sequence (Q17339 whole entry, looked up): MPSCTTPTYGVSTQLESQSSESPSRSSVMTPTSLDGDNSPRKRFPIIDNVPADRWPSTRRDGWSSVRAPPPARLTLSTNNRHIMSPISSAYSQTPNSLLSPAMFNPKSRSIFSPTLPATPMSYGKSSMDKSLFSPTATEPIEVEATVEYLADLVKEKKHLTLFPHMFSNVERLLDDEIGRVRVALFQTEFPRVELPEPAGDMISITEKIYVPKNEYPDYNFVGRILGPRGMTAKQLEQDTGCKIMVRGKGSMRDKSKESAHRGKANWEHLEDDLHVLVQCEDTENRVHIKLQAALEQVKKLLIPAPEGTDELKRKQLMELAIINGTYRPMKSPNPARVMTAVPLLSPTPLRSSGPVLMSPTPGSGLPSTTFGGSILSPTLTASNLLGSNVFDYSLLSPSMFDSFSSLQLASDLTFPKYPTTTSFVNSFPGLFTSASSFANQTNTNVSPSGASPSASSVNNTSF
MCL1-BIM inh – inhibitors of MCL1 binding to BIM-BH3, primary screen, biochemical, fluorescence polarization; GST-MCL1 / FITC-Bim-BH3 fluorescence polarization; AID 2057, 2009; actives 0.68% (n = 320,000); Induced myeloid leukemia cell differentiation protein Mcl-1 (Homo sapiens), Q07820; inhibition, % at 10.9 µM;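 active = inhibition above the mean inhibition of all tested compounds plus 3 SD, set per campaign, cut at about 40% in these data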;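 note: 0% = DMSO wells and 100% = unlabeled Bim-BH3 peptide control; higher means more loss of mP so more displacement of Bim peptide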
BCLXL inh – inhibitors of human Bcl-xL, primary screen, biochemical, fluorescence polarization, HTS. Bcl-2-like protein 1 (Homo sapiens), Q07817. GST-Bcl-xL / FITC-Bim BH3 peptide fluorescence polarization. inhibition, % at 10.9 µM. actives 0.7% (n = 320,000);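 active = inhibition above the mean of all tested compounds plus 3 SD, cutoff set per campaign, cut at about 30% in these data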;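 note: 0% = DMSO wells and 100% = unlabeled Bim-BH3 peptide competitor; inhibitors lower millipolarization by displacing the labeled peptide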
Fam108B inh – mouse Fam108B serine hydrolase inhibitors, primary screen, counter-screen for RBBP9 inhibitor project, biochemical, fluorescence polarization; recombinant Fam108B, FP-Rh probe fluorescence polarization; inhibition, % at 9.51 µM; actives 0.33% (n = 300,000); AID 1947, 2009;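 active = inhibition above the screen mean inhibition plus 3 SD, computed separately per campaign, cut at about 18% in these data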;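 note: inhibitors lower polarization as less probe binds the enzyme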
MEX-5 binding – MEX-5 zinc finger RNA-binding disruptors – biochemical, C. elegans, fluorescence polarization, MLPCN library, primary screen; Zinc finger protein mex-5 (Caenorhabditis elegans), Q9XUB2; MEX-5/FITC-TCR2 RNA binding; active compounds read low; activity score (negative = inhibition of binding), % at 10 µM; actives 0.38% (n = 300,000);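 active = inhibition past about -25% in most replicates, and total fluorescence under double the plate's negative control median, limit read from the data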;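 note: 0% = DMSO and -100% = 5 µM competing unlabeled TCR2 RNA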
Starred values were filed as active, the others as inactive; & = joins results of further samples. Not all compounds are listed (hit frequency here may not be typical).

Screening CN(C)CC/C=C1/c2ccccc2COc2ccccc21 returned pPAFAH inh 1.0, GLD-1 TGE inh 5.0, MCL1-BIM inh 5.8, BCLXL inh -3.1, Fam108B inh -5.0 and MEX-5 binding -0.6.
Screening C=C1C[C@]23C[C@@]1(O)CC[C@H]2[C@@]12C=C[C@H](O)[C@@](C)(C(=O)O1)[C@H]2[C@@H]3C(=O)O returned pPAFAH inh 1.9&-0.5, GLD-1 TGE inh -1.3&2.2, MCL1-BIM inh 2.9&-1.4, BCLXL inh -0.6&3.0 and Fam108B inh -0.2.
`C[C@@H]1O[C@@H]1P(=O)(O)O` gave pPAFAH inh -2.6, GLD-1 TGE inh 5.8, MCL1-BIM inh -8.2, BCLXL inh -5.3 and Fam108B inh 2.4.
Screening CC(C)NCC(O)c1ccc(NS(C)(=O)=O)cc1 (centres undefined) returned pPAFAH inh -0.5, GLD-1 TGE inh 5.0, MCL1-BIM inh -1.4, BCLXL inh 3.1, Fam108B inh -7.0 and MEX-5 binding -3.3.
Screening COc1cccc2cc(C(=O)CS(=O)(=O)c3ccc(C)cc3)c(=O)oc12 returned pPAFAH inh 13.7, GLD-1 TGE inh 3.3, MCL1-BIM inh 4.8, BCLXL inh 3.8, Fam108B inh 3.2 and MEX-5 binding 1.6.
For COc1cc2c(cc1OC)CN(C(=O)CCCN1C(=O)c3ccccc3C1=O)CC2 the results were pPAFAH inh 4.6, GLD-1 TGE inh 9.5, MCL1-BIM inh 2.1, BCLXL inh 2.0, Fam108B inh -2.0 and MEX-5 binding -2.4.
NS(=O)(=O)c1cc(C(=O)O)c(NCc2ccco2)cc1Cl was read as pPAFAH inh 2.8, GLD-1 TGE inh 0.1, MCL1-BIM inh 0.5, BCLXL inh 2.9, Fam108B inh -8.7 and MEX-5 binding -1.7.
Screening C1CCC2=NCCCN2CC1 returned pPAFAH inh 3.0, GLD-1 TGE inh 12.8, MCL1-BIM inh 11.8, BCLXL inh 3.8, Fam108B inh 7.9 and MEX-5 binding -2.1.
For Cc1ccc(S(=O)(=O)N2CCCCC2)cc1NC(=O)COc1ccccc1F the results were pPAFAH inh 2.9, GLD-1 TGE inh -3.9, MCL1-BIM inh -7.9, BCLXL inh 6.4, Fam108B inh 1.4 and MEX-5 binding 1.6.
`Cc1cc(O)cc(C)c1Cl` gave pPAFAH inh 1.3, GLD-1 TGE inh 1.6, MCL1-BIM inh 7.7, BCLXL inh 2.1, Fam108B inh 8.4 and MEX-5 binding 2.4.
Screening CCc1cccc(N(C)C(N)=Nc2cccc3ccccc23)c1 returned pPAFAH inh 1.0, GLD-1 TGE inh 0.9, MCL1-BIM inh -8.3, BCLXL inh 9.4, Fam108B inh 1.3 and MEX-5 binding -2.2.
`OCC(O)[C@@H](O[C@H]1O[C@H](CO)[C@@H](O)[C@H](O)[C@H]1O)[C@H](O)[C@@H](O)CO` (some centres undefined) gave pPAFAH inh -1.0, GLD-1 TGE inh 0.8, MCL1-BIM inh 4.7, BCLXL inh 6.6, Fam108B inh 3.8 and MEX-5 binding 2.1.
Screening CN1CCN(C(=O)c2ccc3c(c2)NC(=O)/C(=C/c2ccccc2)S3)CC1 returned pPAFAH inh 7.2, GLD-1 TGE inh -3.8, MCL1-BIM inh -1.3, BCLXL inh 1.9, Fam108B inh 0.7 and MEX-5 binding -0.9.
CCOC(=O)C1CCN(C(=O)c2ccc3c(c2)NC(=O)/C(=C/c2ccccc2)S3)CC1 was read as pPAFAH inh -1.2, GLD-1 TGE inh -1.2, MCL1-BIM inh 4.9, BCLXL inh 10.6, Fam108B inh -5.4 and MEX-5 binding -6.8.
O=C(CCNC(=O)C1CCN(S(=O)(=O)c2ccccc2)CC1)NCc1ccc(Cl)cc1Cl was read as pPAFAH inh 3.3, GLD-1 TGE inh 9.2, MCL1-BIM inh 1.5, BCLXL inh 3.6, Fam108B inh 3.7 and MEX-5 binding 0.2.
For CCN(CC)CC(=O)Nc1c(C)cccc1C the results were pPAFAH inh -2.9&-7.5&0.8, GLD-1 TGE inh 4.8&1.6&-2.6, MCL1-BIM inh -6.2, BCLXL inh 3.6 and Fam108B inh -2.4.
For Cc1ccc(/C=C2/Sc3ccc(C(=O)N4CCN(c5ccccn5)CC4)cc3NC2=O)cc1 the results were pPAFAH inh 6.5, GLD-1 TGE inh -5.2, MCL1-BIM inh -12.5, BCLXL inh -5.6, Fam108B inh 2.5 and MEX-5 binding -60.6*.
CC[C@]12CCCN3CCc4c(n(c5ccccc45)C(=O)C1)C32 (some centres undefined) was read as pPAFAH inh 1.0, GLD-1 TGE inh 3.0, MCL1-BIM inh -0.6, BCLXL inh 4.8, Fam108B inh -2.1 and MEX-5 binding -7.6.
COc1ccc(S(=O)(=O)N2CCC(C(=O)Nc3ccccc3N3CCCCC3)CC2)cc1OC was read as pPAFAH inh 4.1, GLD-1 TGE inh -6.5, MCL1-BIM inh -10.3, BCLXL inh -3.3, Fam108B inh -2.8 and MEX-5 binding 0.7.
COc1ccc(S(=O)(=O)N2CCCCC2)cc1NC(=O)CN(C)C1CCCCC1 was read as pPAFAH inh 0.3, GLD-1 TGE inh 0.4, MCL1-BIM inh 3.6, BCLXL inh 3.9, Fam108B inh -0.4 and MEX-5 binding 0.8.

A draw from above in order of molecular weight, low to high.
`C[C@@H]1O[C@@H]1P(=O)(O)O` gave pPAFAH inh -2.6, GLD-1 TGE inh 5.8, MCL1-BIM inh -8.2, BCLXL inh -5.3 and Fam108B inh 2.4.
CCOC(=O)C1CCN(C(=O)c2ccc3c(c2)NC(=O)/C(=C/c2ccccc2)S3)CC1 was read as pPAFAH inh -1.2, GLD-1 TGE inh -1.2, MCL1-BIM inh 4.9, BCLXL inh 10.6, Fam108B inh -5.4 and MEX-5 binding -6.8.
COc1ccc(S(=O)(=O)N2CCC(C(=O)Nc3ccccc3N3CCCCC3)CC2)cc1OC was read as pPAFAH inh 4.1, GLD-1 TGE inh -6.5, MCL1-BIM inh -10.3, BCLXL inh -3.3, Fam108B inh -2.8 and MEX-5 binding 0.7.

Returning to the listing, repeating the 5 entries before the break.
For CCN(CC)CC(=O)Nc1c(C)cccc1C the results were pPAFAH inh -2.9&-7.5&0.8, GLD-1 TGE inh 4.8&1.6&-2.6, MCL1-BIM inh -6.2, BCLXL inh 3.6 and Fam108B inh -2.4.
For Cc1ccc(/C=C2/Sc3ccc(C(=O)N4CCN(c5ccccn5)CC4)cc3NC2=O)cc1 the results were pPAFAH inh 6.5, GLD-1 TGE inh -5.2, MCL1-BIM inh -12.5, BCLXL inh -5.6, Fam108B inh 2.5 and MEX-5 binding -60.6*.
CC[C@]12CCCN3CCc4c(n(c5ccccc45)C(=O)C1)C32 (some centres undefined) was read as pPAFAH inh 1.0, GLD-1 TGE inh 3.0, MCL1-BIM inh -0.6, BCLXL inh 4.8, Fam108B inh -2.1 and MEX-5 binding -7.6.
COc1ccc(S(=O)(=O)N2CCC(C(=O)Nc3ccccc3N3CCCCC3)CC2)cc1OC was read as pPAFAH inh 4.1, GLD-1 TGE inh -6.5, MCL1-BIM inh -10.3, BCLXL inh -3.3, Fam108B inh -2.8 and MEX-5 binding 0.7.
COc1ccc(S(=O)(=O)N2CCCCC2)cc1NC(=O)CN(C)C1CCCCC1 was read as pPAFAH inh 0.3, GLD-1 TGE inh 0.4, MCL1-BIM inh 3.6, BCLXL inh 3.9, Fam108B inh -0.4 and MEX-5 binding 0.8.
For COc1ccc2[nH]cc(CCNC(C)=O)c2c1 the results were pPAFAH inh -1.5, GLD-1 TGE inh 8.6, MCL1-BIM inh -4.9, BCLXL inh -3.3, Fam108B inh 4.4 and MEX-5 binding -1.2.
COc1cc2c(cc1OC)CN(C(=O)COc1ccc(C)c(C)c1)CC2 was read as pPAFAH inh 5.8, GLD-1 TGE inh 9.4, MCL1-BIM inh 10.2, BCLXL inh 9.2, Fam108B inh -5.6 and MEX-5 binding 1.2.
Cc1ccc2c(c1)C1CN(C)CCC1N2C(=O)c1cccc(S(=O)(=O)N(C)C)c1 (centres undefined) was read as pPAFAH inh -1.1, GLD-1 TGE inh 4.7, MCL1-BIM inh -7.9, BCLXL inh 3.2, Fam108B inh 0.3 and MEX-5 binding -1.0.
`COc1cccc2c1[C@@H]1CN(CCCCn3c(=O)[nH]c4c(sc5ncc(-c6ccccc6)nc54)c3=O)C[C@@H]1CO2` gave pPAFAH inh 11.4, GLD-1 TGE inh 5.6, MCL1-BIM inh 10.2, BCLXL inh 9.3 and Fam108B inh 4.0.
Screening c1ccc(Nc2nc(-c3ccccn3)cs2)cc1 returned pPAFAH inh 1.0, GLD-1 TGE inh 12.2, MCL1-BIM inh 9.2, BCLXL inh 7.0, Fam108B inh 9.1 and MEX-5 binding 0.6.
Screening COc1cc(S(=O)(=O)N2CCCCC2)ccc1NC(=O)Cc1ccccc1 returned pPAFAH inh 6.3, GLD-1 TGE inh -1.5, MCL1-BIM inh 8.6, BCLXL inh 4.1, Fam108B inh 0.0 and MEX-5 binding 2.1.
Screening CCc1c(-c2n[nH]c(=S)n2Cc2ccccc2)csc1C returned pPAFAH inh -1.9, GLD-1 TGE inh 5.4, MCL1-BIM inh -23.5, BCLXL inh -15.1, Fam108B inh -1.5 and MEX-5 binding -0.5.
CCCC1C(=O)N2C(N(C)C)=Nc3ccc(C)cc3N2C1=O (centres undefined) was read as pPAFAH inh 0.1, GLD-1 TGE inh 6.3, MCL1-BIM inh 1.3, BCLXL inh 4.7 and Fam108B inh 0.5.
CNCC(O)C(O)C(O)C(O)CO (centres undefined) was read as pPAFAH inh -1.8, GLD-1 TGE inh -0.1, MCL1-BIM inh 4.2, BCLXL inh 0.6, Fam108B inh 2.9 and MEX-5 binding -1.5.
`CC[C@]12CCCN3CCc4c(n(c5ccccc45)C(=O)C1)[C@@H]32` gave pPAFAH inh 0.3, GLD-1 TGE inh 14.4, MCL1-BIM inh 2.1, BCLXL inh 3.0 and Fam108B inh -1.8.
O=C(CCNC(=O)C1CCN(S(=O)(=O)c2ccc(F)cc2)CC1)NCCc1ccc(Cl)cc1 was read as pPAFAH inh 3.8, GLD-1 TGE inh 1.6, MCL1-BIM inh 1.1, BCLXL inh 4.7, Fam108B inh 1.7 and MEX-5 binding 1.0.
CCCCOC(=O)COc1ccc(Cl)cc1Cl was read as pPAFAH inh -3.0, GLD-1 TGE inh -2.8, MCL1-BIM inh -2.2 and BCLXL inh 4.7.
Screening C#C[C@]1(O)CC[C@H]2[C@@H]3CCc4cc(OC5CCCC5)ccc4[C@H]3CC[C@@]21C returned pPAFAH inh -0.5, GLD-1 TGE inh 7.2, MCL1-BIM inh -2.0, BCLXL inh 0.8, Fam108B inh -1.0 and MEX-5 binding 1.5.
Screening CN(Cc1cnc2nc(N)nc(N)c2n1)c1ccc(C(=O)N[C@@H](CCC(=O)O)C(=O)O)cc1 returned pPAFAH inh 4.7&-3.5, GLD-1 TGE inh 1.7&9.3, MCL1-BIM inh 8.4&25.5, BCLXL inh 9.9&22.2, Fam108B inh -6.8&-7.2 and MEX-5 binding -9.0.
COc1cc2c(cc1OC)CN(C(=O)CCOc1ccccc1)CC2 was read as pPAFAH inh 5.8, GLD-1 TGE inh -0.7, MCL1-BIM inh -13.0, BCLXL inh -1.4, Fam108B inh -0.4 and MEX-5 binding 2.0.
Cc1ccc(/C=C2/Sc3ccc(C(=O)N4CCN(C)CC4)cc3NC2=O)cc1 was read as pPAFAH inh 13.6, GLD-1 TGE inh 16.9, MCL1-BIM inh 34.3, BCLXL inh 36.9*, Fam108B inh 0.7 and MEX-5 binding -12.0.
Screening CC[C@@H]1Cc2cc(O)ccc2C2=C1c1ccc(O)cc1C[C@H]2CC returned pPAFAH inh 15.3, GLD-1 TGE inh 7.0, MCL1-BIM inh 0.0, BCLXL inh 6.3 and Fam108B inh 10.2.
